Screens from PubChem.
GALR2 ag: GALR2 (human) receptor agonism; O43603; GALR2-expressing cells, agonist activation read-out; activation, %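 (tested at 5 µM)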; actives 0.48% (n = 140,000);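 active = above mean plus 3 SD of all compounds, about 5% in these data, not always enough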;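 also: 0% = vehicle buffer wells and 100% = reference agonist at full effect; tested in CHO reporter cells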
INS promoter inh: TRM-6 insulin promoter activity inhibition. TRM-6 cells (human fetal islet line), insulin promoter-eGFP reporter, imaging; reporter expression induced with tamoxifen. actives 0.9% (n = 130,000). inhibition, % at 2 µM. AID 1273;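 active = inhibition above the mean plus 3 SD, with well images judged a real hit on visual review, cut at about 60% in these data, passing the limit was not always enough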
HSV replic up: increases HSV replication in cells. HSV replication augmentation in cells, fold increase. maximum fold increase. actives 0.005% (n = 220,000). AID 1956;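 active = peak rise of 1.5-fold or more in the series; tested in PC3 cells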;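 also: first round at 10 µM; read as green reporter fluorescence; hits show the peak of a series up to 25 µM; 1 = signal of infected wells without compound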
RGS16-Gao: regulators of human RGS16-Galphao interaction | O15492+P09471 | bead-based flow cytometry RGS16-Galphao binding, fluorescence; actives lie on both sides | binding response (% of control), % at 10 µM | actives 0.38% (n = 220,000) | AID 1441;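 active = below 25% or above 175%, edge rows of some plates excepted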;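 also: Galphao activated by GDP with aluminum fluoride before binding; 100% = wells without compound and 0% = beads without RGS; some results beyond the cut were filed as inactive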
PKD1 kinase inh: inhibitors of human PKD1 kinase. PKD1 kinase fluorescence polarization assay. inhibition, %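 (about 10 µM by stock and volumes)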. actives 0.056% (n = 200,000). AID 797;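 active = inhibition of 50% or more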;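 also: controls were vehicle for no effect and a reference inhibitor for full effect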
Target sequence (Q15139 whole entry, looked up): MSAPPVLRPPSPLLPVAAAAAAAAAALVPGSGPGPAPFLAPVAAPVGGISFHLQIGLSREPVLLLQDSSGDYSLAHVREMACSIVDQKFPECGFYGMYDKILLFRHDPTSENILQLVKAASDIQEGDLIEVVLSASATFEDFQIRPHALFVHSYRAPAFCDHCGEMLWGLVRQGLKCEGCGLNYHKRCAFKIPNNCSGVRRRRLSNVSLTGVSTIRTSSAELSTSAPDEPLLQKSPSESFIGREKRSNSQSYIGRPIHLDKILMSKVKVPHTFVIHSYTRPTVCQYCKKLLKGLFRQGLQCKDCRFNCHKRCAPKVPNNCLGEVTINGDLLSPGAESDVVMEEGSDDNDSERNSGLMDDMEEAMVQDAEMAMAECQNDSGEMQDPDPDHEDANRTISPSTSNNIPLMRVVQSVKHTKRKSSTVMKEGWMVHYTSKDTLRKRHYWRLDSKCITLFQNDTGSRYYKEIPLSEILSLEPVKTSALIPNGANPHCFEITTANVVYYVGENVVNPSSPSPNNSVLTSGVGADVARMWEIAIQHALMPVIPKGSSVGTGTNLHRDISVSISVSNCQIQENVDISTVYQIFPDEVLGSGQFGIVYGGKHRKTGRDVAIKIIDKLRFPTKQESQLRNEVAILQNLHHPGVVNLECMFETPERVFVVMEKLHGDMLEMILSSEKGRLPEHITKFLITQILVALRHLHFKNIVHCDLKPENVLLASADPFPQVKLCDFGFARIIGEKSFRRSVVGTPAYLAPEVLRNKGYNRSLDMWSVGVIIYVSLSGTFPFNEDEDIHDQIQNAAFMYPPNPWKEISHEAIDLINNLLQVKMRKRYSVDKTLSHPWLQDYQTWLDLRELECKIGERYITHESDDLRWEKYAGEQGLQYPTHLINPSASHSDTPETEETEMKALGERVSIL
INS promoter inh cell count: second read-out of INS promoter inh, no call of its own (marks repeat the call); normalized cell count, %; measured here: cell count, toxicity; reference of the scale not given here;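 cells exposed to compound for 48 h; stained nuclei by imaging scaled within each plate; lower means fewer cells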
HSV replic up primary fold: further read-out of HSV replic up, marked with its call; fold increase; compound at 10 µM; measured here: primary screen fold increase 10 uM; tested in PC3 cells;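 GFP signal in the first replicate; 1 = infected wells without compound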
* = called active by the depositor; i = inactive; · = not tested or not shown.

SMILES	GALR2 ag	INS promoter inh	INS promoter inh cell count	HSV replic up	HSV replic up primary fold	RGS16-Gao	PKD1 kinase inh
Cc1nc2ccc(Cl)cc2c(-c2ccccc2F)c1CC(=O)O	-1.3	-9.1	129.4	i	1.1	88.7	1.8
C=CCN(c1ccc(C(N)=O)cc1)S(C)(=O)=O	-1.3	-217.2	59.6	i	1.02	95.9	-1.2
O=C(Cc1cccc2ccccc12)Nc1ccc2c(c1)C(=O)NC2=O	·	-15.8	107.0	i	1.13	97.6	6.2
C=CCN=C(NC#N)SCc1ccccc1Cl	-0.6	-6.1	96.6	i	0.93	92.2	3.7
Cn1c(Cn2c(=O)sc3ccccc32)nnc1SCC(N)=O	-0.6	·	·	i	1.1	98.4	0.5
COc1cccc(OCc2ccc(C(=O)NCC3CCCO3)cc2)c1 (stereo not drawn)	-1.3	46.1	102.1	i	1.05	87.8	-10.8
Cn1c(SCC(=O)N2CCc3ccccc32)nnc1-c1ccc(S(=O)(=O)N2CCCC2)cc1	-0.2	-19.4	79.4	i	0.94	117.8	3.5
O=C(NCc1ccc2c(c1)OCO2)c1ccc(COc2cccc(Cl)c2)o1	-0.7	·	·	·	·	102.1	7.0
O=C(c1ccc2nc3ccc(Cl)cc3c(=O)n2c1)N1CCOCC1	-0.7	·	·	i	0.9	104.3	-1.3
COc1ccc(NC(=O)c2cc3c([nH]c4ccccc43)c(C)n2)cc1	-1.7	·	·	i	0.72	103.1	3.2
COc1ccc(/C=N/Nc2nc(Nc3ccccc3)nc(N3CCCC3)n2)cc1[N+](=O)[O-]	·	33.3	55.1	i	0.55	102.5	-6.3
Cn1cccc1C(C#N)c1ccccc1C#N (stereo not drawn)	·	·	·	i	0.94	99.2	0.5
O=C(Nc1cccc(Oc2ccc3c(c2)C(=O)NC3=O)c1)c1cccs1	-2.2	·	·	i	0.94	103.0	-3.1
O=C(NC1=NCCS1)C1CC(=O)N(c2ccc(F)cc2)C1 (stereo not drawn)	-2.5	12.7	122.7	i	0.79	95.1	-2.0
O=C(N/N=C/c1ccccc1OCc1ccccc1)c1cccs1	-0.8	29.4	125.1	i	0.85	101.2	-12.7
Cc1nc(NC(=O)CSc2ccccc2N)sc1C	0.0	·	·	i	0.85	91.6	-16.1
CCOc1ccc(Nc2cc(C)nc(-n3nc(C)cc3C)n2)cc1	3.9	-185.7	6.4	i	0.617	100.6	-3.4
CCO[C@H]1OC(C(=O)N2CCN(Cc3ccccc3)CC2)=C[C@@H](c2coc3ccccc3c2=O)[C@@H]1CCCO	·	·	·	i	1.03	100.0	3.0
Cc1cc(C)c(N)c(C(=O)O)c1	·	·	·	i	0.97	100.5	·
Cc1ccc(C(=O)c2ccccc2C(=O)O)c(O)c1	-1.7	·	·	i	0.97	98.8	-7.3
COc1ccc(C2=NN(C(=O)CSc3nc4ccccc4s3)C(c3ccc(OC)cc3)C2)cc1 (stereo not drawn)	-0.3	16.7	123.8	i	0.95	100.5	-7.7
Cc1cc(C)c(C#N)c(SCC(=O)OC2CCCCC2)n1	-1.2	6.2	138.2	i	0.84	101.6	-10.9
COc1ccc(CC(=O)NCC2(c3ccc(OC)c(OC)c3)CCCC2)cc1	·	·	·	i	1.16	95.3	4.0
COc1cccc(NC(=O)C2CCCN(S(=O)(=O)c3cccc4nsnc34)C2)c1 (stereo not drawn)	0.1	·	·	i	0.93	102.0	-17.2
COc1ccccc1NS(=O)(=O)c1cc(C)ccc1C	-0.8	-9.7	120.2	i	1.07	104.0	-2.7
COc1cc(C2C(C(=O)c3cccs3)=C(O)C(=O)N2Cc2ccco2)cc(OC)c1OC (stereo not drawn)	-3.3	-13.9	135.0	·	·	103.7	3.8
CCOc1ccccc1NC(=O)CCN1CCN(S(=O)(=O)c2ccc(Br)cc2)CC1	1.0	-4.0	250.0	i	0.78	92.8	-8.9
CSc1nc(-c2ccccc2)nc(NC(C)=O)c1C(C)=O	·	·	·	i	0.98	89.2	4.7
CCOC(=O)/C(C(C)=O)=C1/OC(=O)c2ccccc21	1.9	-37.1	66.4	i	0.63	99.7	-3.6
COc1ccc(/C=N/NC(=O)c2ccn[nH]2)cc1COc1ccc([N+](=O)[O-])c(C)c1	·	·	·	i	0.91	95.5	·
COC(=O)[C@@]1(Cc2ccc(F)cc2)[C@H]2c3cc(C(=O)N4CCCC4)n(CCc4ccccn4)c3C[C@H]2CN1C(=O)c1ccccc1	-1.3	-30.0	94.1	i	0.96	30.3	5.0
COc1ccc(-n2nnnc2/C=C/Nc2cc(C(F)(F)F)ccc2OC)cc1	·	·	·	i	1.03	99.0	·
CCCCCn1c(N2CCC(C(N)=O)CC2)nc2c1c(=O)[nH]c(=O)n2C	0.5	·	·	i	0.963	98.4	-1.9
CCn1c(N2CCN(CC(=O)c3c(C)n(C)c4ccccc34)CC2)nc2c1c(=O)[nH]c(=O)n2C	-1.1	3.1	135.0	i	0.92	108.9	-4.5
CCC1CCCCN1S(=O)(=O)c1ccccc1[N+](=O)[O-] (stereo not drawn)	·	-11.1	49.5	i	0.95	73.8	-1.4
CCCCCC(=O)Nc1cccc(C2=NOC3(C2)C[C@@H](C(N)=O)N(C(=O)c2cc([N+](=O)[O-])cc([N+](=O)[O-])c2)C3)c1 (stereo partly drawn)	·	·	·	i	0.8	101.1	·
Cc1ccc(N/N=C(\C#N)C(=N)N2CCOCC2)cc1	0.1	7.1	95.3	i	1.03	105.0	-2.4
N#CC1=C(SCc2ccccc2Cl)NC(=O)C(C(N)=O)C1 (stereo not drawn)	-0.5	-8.7	117.9	i	0.91	105.3	-2.3
CCCCn1c(SCC2CCCCO2)nc2cc(S(N)(=O)=O)ccc21 (stereo not drawn)	1.0	·	·	i	1.05	104.7	-3.0
Cc1cc(Sc2nnc(N)s2)c2ccccc2n1	·	·	·	i	0.59	100.5	·
CCOc1ccc(Cn2c(C)nc([N+](=O)[O-])c2SCC(O)CCl)cc1[N+](=O)[O-] (stereo not drawn)	1.4	-35.7	118.6	i	0.96	101.9	-2.3
COc1ccc(C2=CC(c3c(C)nn(-c4ccccc4)c3Cl)n3nnnc3N2)cc1OC (stereo not drawn)	-0.1	·	·	i	1.07	110.2	3.0
CSC(=S)NCc1cccnc1	·	·	·	i	0.81	103.9	-1.1
CCn1c(/C(C#N)=C(\O)CCc2ccccc2)nc2ccccc21	-10.1	66.7	67.3	i	1.06	104.9	-6.8
COc1cccc(/C=C/C(=O)Nc2ccc3c(c2)OCCO3)c1OC	·	·	·	i	0.91	101.2	0.1
O=C(CCCn1cnc([N+](=O)[O-])n1)Nc1cccc(Cl)c1Cl	-1.4	28.0	57.7	i	0.86	102.6	-4.9
c1csc(C(c2nnnn2C2CCCCC2)N2CCCC3(CCCCC3)C2)c1 (stereo not drawn)	-1.6	-33.3	114.3	·	·	114.6	-2.5
COc1ccc(N2C(=O)CC(c3cc(OC)c(OC)c(OC)c3)CC2=O)cc1	·	·	·	i	0.73	103.6	·
Cc1c(NC(=O)CSc2ccc3c(c2)OCCO3)c(=O)n(-c2ccccc2)n1C	-2.0	·	·	i	1.01	102.3	4.9
CCOC(=O)C1CCN(S(=O)(=O)c2cc(F)ccc2OC)CC1	·	34.9	84.4	i	0.87	102.8	7.5

New compounds follow.
SMILES	GALR2 ag	INS promoter inh	INS promoter inh cell count	HSV replic up	HSV replic up primary fold	RGS16-Gao	PKD1 kinase inh
CSCCC(NC(=O)c1ccccc1)C(=O)Nc1ccc(C)cc1 (stereo not drawn)	-0.6	44.8	58.3	i	1.02	53.7	-2.8
COc1cc(NC(=S)NN2CCN(C)CC2)cc(OC)c1OC	·	-45.5	132.3	i	1.02	102.4	-4.4
O=C(c1ccco1)N1CCN(S(=O)(=O)c2ccc(S(=O)(=O)NC3CC3)cc2)CC1	-3.1	11.5	101.6	i	0.93	96.9	-6.9
COc1ccc(C2=C/C(=C\c3cccc(OC(C)=O)c3)C(=O)O2)cc1	0.5	-33.3	101.7	i	0.99	104.0	-8.5
CCCCCC1CC(CC(=O)Nc2ccc([N+](=O)[O-])cc2)OC1=O (stereo not drawn)	·	·	·	i	0.81	97.7	·
Cc1nc2nc(-c3ccccc3)[nH]n2c(=O)c1C	-2.0	13.3	141.2	i	1.45	100.3	-7.8
Nc1nc(SCC(=O)Nc2ccccc2Sc2ccccc2)n[nH]1	-1.8	-68.6	112.8	i	1.11	101.3	0.1
CCOC(=O)C1=C(CSc2nc(CC)c(C)cc2C#N)OC(N)=C(C#N)C1c1ccccc1 (stereo not drawn)	-1.8	-41.4	121.5	i	1.17	102.9	-9.8
Cc1cc(C)c(NC(=O)CSc2nnc(-c3ccco3)n2N)c(C)c1	-3.2	·	·	i	0.99	109.5	-7.0
CCOn1c(=O)c(C)[n+]([O-])c2ccccc21	-0.7	-22.2	131.7	i	0.9	98.0	4.4
CN(NC(=O)c1ccccc1F)c1ccc([N+](=O)[O-])cn1	·	·	·	i	0.98	104.2	·
CCCOC(=O)c1ccc(Cl)c(NC(=O)c2ccc(-c3ccccc3)cc2)c1	-2.0	·	·	i	0.8	100.5	1.0
COc1cc(CCC(=O)OCC(=O)NCc2ccc(Cl)cc2)cc(OC)c1OC	·	·	·	i	0.94	108.2	1.3
O=C(N1CCN(c2ccccc2)CC1)C(F)(F)C(F)(F)F	-1.4	22.2	98.0	i	0.91	89.2	-11.8
Cc1cc(C(=O)CSc2nn(-c3ccccc3)c(=S)s2)c(C)n1Cc1ccco1	-3.2	-16.1	111.4	i	0.77	99.8	-3.7
CC1(C(=O)NC23CC4CC(CC(C4)C2)C3)CC1(Cl)Cl (stereo not drawn)	-2.0	30.0	87.2	i	1.05	167.8	-6.6
COc1ccc(/C=C2\CCCc3c2nc2ccc(C)cc2c3C(=O)O)cc1O	·	·	·	i	0.97	86.4	·

Pulled by compound from the entries so far, 3 records:
SMILES	GALR2 ag	INS promoter inh	INS promoter inh cell count	HSV replic up	HSV replic up primary fold	RGS16-Gao	PKD1 kinase inh
COc1cc(CCC(=O)OCC(=O)NCc2ccc(Cl)cc2)cc(OC)c1OC	·	·	·	i	0.94	108.2	1.3
CCCOC(=O)c1ccc(Cl)c(NC(=O)c2ccc(-c3ccccc3)cc2)c1	-2.0	·	·	i	0.8	100.5	1.0
Cc1cc(C(=O)CSc2nn(-c3ccccc3)c(=S)s2)c(C)n1Cc1ccco1	-3.2	-16.1	111.4	i	0.77	99.8	-3.7

Compounds shown so far that have two or more sulfur atoms, in the order listed:
SMILES	GALR2 ag	INS promoter inh	INS promoter inh cell count	HSV replic up	HSV replic up primary fold	RGS16-Gao	PKD1 kinase inh
Cn1c(Cn2c(=O)sc3ccccc32)nnc1SCC(N)=O	-0.6	·	·	i	1.1	98.4	0.5
Cn1c(SCC(=O)N2CCc3ccccc32)nnc1-c1ccc(S(=O)(=O)N2CCCC2)cc1	-0.2	-19.4	79.4	i	0.94	117.8	3.5
Cc1nc(NC(=O)CSc2ccccc2N)sc1C	0.0	·	·	i	0.85	91.6	-16.1
COc1ccc(C2=NN(C(=O)CSc3nc4ccccc4s3)C(c3ccc(OC)cc3)C2)cc1 (stereo not drawn)	-0.3	16.7	123.8	i	0.95	100.5	-7.7
COc1cccc(NC(=O)C2CCCN(S(=O)(=O)c3cccc4nsnc34)C2)c1 (stereo not drawn)	0.1	·	·	i	0.93	102.0	-17.2
CCCCn1c(SCC2CCCCO2)nc2cc(S(N)(=O)=O)ccc21 (stereo not drawn)	1.0	·	·	i	1.05	104.7	-3.0
Cc1cc(Sc2nnc(N)s2)c2ccccc2n1	·	·	·	i	0.59	100.5	·
CSC(=S)NCc1cccnc1	·	·	·	i	0.81	103.9	-1.1
O=C(c1ccco1)N1CCN(S(=O)(=O)c2ccc(S(=O)(=O)NC3CC3)cc2)CC1	-3.1	11.5	101.6	i	0.93	96.9	-6.9
Nc1nc(SCC(=O)Nc2ccccc2Sc2ccccc2)n[nH]1	-1.8	-68.6	112.8	i	1.11	101.3	0.1
Cc1cc(C(=O)CSc2nn(-c3ccccc3)c(=S)s2)c(C)n1Cc1ccco1	-3.2	-16.1	111.4	i	0.77	99.8	-3.7
